Bioassay records (PubChem BioAssay)
p53 nuclei = p53 stabilisation in HPV-positive human cells, imaging, p53-positive nuclei imaging, 24 h, 48 h (AID 1508601) | actives 1% (n = 5,700) | p53-positive nuclei, normalised, % at 11 µM unless noted | p53-positive nuclei imaging, 48 h; active compounds read high; some inactives read as strong as hits | Cellular tumor antigen p53 (Homo sapiens);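 active = mean of two plates above 50% at 24 h or at 48 h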;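 also: HPV-positive HeLa cells with a fluorescent p53 stability reporter; 0% = vehicle and 100% = proteasome inhibitor control; doses worked out from stocks diluted about 900-fold with the highest of each compound shown; many of its hits are not listed in these tables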
p53 nuclei cells 24 h = also measured in p53 nuclei; calls as there; nuclei count, normalised, %; measured here: cell number at 24 h;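 100% = vehicle wells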
p53 nuclei p53 24 h = further read-out of p53 nuclei, marked with its call; p53-positive nuclei, normalised, %; measured here: p53 positive nuclei at 24 h;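 0% = vehicle and 100% = positive control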
p53 nuclei cells 48 h = recorded beside p53 nuclei, whose call it bears; nuclei count, normalised, %; measured here: cell number at 48 h;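 100% = vehicle wells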
* hit, by the source's call; [ ] = another dose, or the depositor's remark. Some of the compounds tested; the hit share may differ from the screen's.

cpd	SMILES	p53 nuclei	p53 nuclei cells 24 h	p53 nuclei p53 24 h	p53 nuclei cells 48 h
1	NCC(O)c1ccc(O)cc1 (centres undefined)	0.0[3.7 µM]	105	-0.2	105
2	CCN(CC)C(=O)c1ccc(C2=CC3(CCNCC3)Oc3cccc(O)c32)cc1	-0.6[3.7 µM]	110	-0.2	113
3	O=C(NCC1CCOCC1)c1cnc(Nc2ccc(Cl)cc2Cl)nc1C(F)(F)F	0.1	109	-0.1	105
4	CC(O)(CS(=O)(=O)c1ccc(F)cc1)C(=O)Nc1ccc(C#N)c(C(F)(F)F)c1 (centres undefined)	-0.3[3.7 µM]	110	-0.1	102
5	O=c1cccc2n1CC1CNCC2C1 (centres undefined)	0.1[3.7 µM]	100	-0.1	103
6	Fc1ccc(C(OCCN2CCN(CCCc3ccccc3)CC2)c2ccc(F)cc2)cc1	0.2	65	0.1	56
7	Clc1nc(Cl)nc(Cl)n1	0.1	118	0.0	108
8	NCCc1c[nH]c2ccc(O)cc12	0.0[3.7 µM]	117	-0.2	107
9	CN(C)C(=O)Oc1cc(OC(=O)N(C)C)cc(C(O)CNC(C)(C)C)c1 (centres undefined)	-0.1[3.7 µM]	104	-0.2	101
10	Cc1cc2c(C(C)C)c(O)c(O)c(C=O)c2c(O)c1-c1c(C)cc2c(C(C)C)c(O)c(O)c(C=O)c2c1O	0.3	79	0.2	61
11	OC(c1ccccc1)(c1ccccc1)C1CCNCC1	-0.1[3.7 µM]	106	-0.2	102
12	COCC1OC(=O)c2coc3c2[C@@]1(C)C1=C(C3=O)[C@@H]2CCC(=O)[C@@]2(C)CC1OC(C)=O (some centres undefined)	-0.3[3.7 µM]	100	-0.3	98
13	Cc1cccc(Cc2cnc[nH]2)c1C	-0.1[3.7 µM]	101	-0.4	100
14	COc1ccc(CC2NCCc3cc(OC)c(OC)cc32)cc1OC (centres undefined)	-0.1[3.7 µM]	109	-0.3	109
15	CN1CCC(C(=O)c2cccc(NC(=O)c3c(F)cc(F)cc3F)n2)CC1	-0.1	116	-0.1	105
16	C[C@@]12N[C@@H](Cc3ccccc31)c1ccccc12	0.0[3.7 µM]	115	-0.3	107
17	NC(=NCCCC(N)C(=O)O)N[N+](=O)[O-] (centres undefined)	-0.1	112	0.1	109
18	c1cc2c(cc1C1OC[C@H]3C(c4ccc5c(c4)OCO5)OC[C@H]13)OCO2 (some centres undefined)	-0.2[3.7 µM]	109	-0.1	109
19	COc1ccc2c(c[n+](C)c3c4cc5c(cc4ccc23)OCO5)c1OC	14	37	15	28
20	CCC1(C)CC(=O)NC(=O)C1	0.0[3.7 µM]	99	-0.1	102
21	CN1[C@@H]2CC[C@H]1CC(OC(=O)C1C=Nc3ccccc31)C2 (some centres undefined)	0.1[3.7 µM]	104	0.1	104
22	CC=Cc1cc(OC)c(OC)cc1OC	-0.1	66	0.0	70
23	C[C@]1(O)CC[C@@H]2[C@@H]3CCC4=CC(=O)CC[C@]4(C)[C@@]3(F)C(O)C[C@@]21C (some centres undefined)	0.0	121	0.0	109
24	Cc1sc2c(c1C)C(c1ccc(Cl)cc1)=NC(CC(N)=O)c1nnc(C)n1-2 (centres undefined)	26	90	46	84
25	C#C[C@@]1(O)C=C[C@H]2[C@@H]3CCC4=CC(=O)CC[C@@H]4[C@@H]3CC[C@@]21CC	4.3[3.7 µM]	91	0.0	82
26	C[C@]12CC[C@@H]3[C@@H](CC[C@@]45O[C@@H]4C(O)=C(C#N)C[C@]35C)[C@@H]1CCC2O (some centres undefined)	-0.4[3.7 µM]	114	-0.3	113
27	O=c1[nH]c2ccccc2n1C1CCN(Cc2ccc(-c3[nH]c4cc5ncnc5cc4nc3-c3ccccc3)cc2)CC1	-0.2	92	0.0	110
28	COc1ccc(Cc2nccc3cc(OC)c(OC)cc23)cc1OC	0.3	110	0.0	102

In a second layout: entries from further up.
Each structure is followed by: p53 nuclei	p53 nuclei cells 24 h	p53 nuclei p53 24 h	p53 nuclei cells 48 h
(1) NCC(O)c1ccc(O)cc1 (centres undefined)
  0.0[3.7 µM]	105	-0.2	105
(2) CCN(CC)C(=O)c1ccc(C2=CC3(CCNCC3)Oc3cccc(O)c32)cc1
  -0.6[3.7 µM]	110	-0.2	113
(3) O=C(NCC1CCOCC1)c1cnc(Nc2ccc(Cl)cc2Cl)nc1C(F)(F)F
  0.1	109	-0.1	105
(4) CC(O)(CS(=O)(=O)c1ccc(F)cc1)C(=O)Nc1ccc(C#N)c(C(F)(F)F)c1 (centres undefined)
  -0.3[3.7 µM]	110	-0.1	102
(5) O=c1cccc2n1CC1CNCC2C1 (centres undefined)
  0.1[3.7 µM]	100	-0.1	103
(6) Fc1ccc(C(OCCN2CCN(CCCc3ccccc3)CC2)c2ccc(F)cc2)cc1
  0.2	65	0.1	56
(7) Clc1nc(Cl)nc(Cl)n1
  0.1	118	0.0	108
(8) NCCc1c[nH]c2ccc(O)cc12
  0.0[3.7 µM]	117	-0.2	107
(9) CN(C)C(=O)Oc1cc(OC(=O)N(C)C)cc(C(O)CNC(C)(C)C)c1 (centres undefined)
  -0.1[3.7 µM]	104	-0.2	101
(10) Cc1cc2c(C(C)C)c(O)c(O)c(C=O)c2c(O)c1-c1c(C)cc2c(C(C)C)c(O)c(O)c(C=O)c2c1O
  0.3	79	0.2	61
(11) OC(c1ccccc1)(c1ccccc1)C1CCNCC1
  -0.1[3.7 µM]	106	-0.2	102
(12) COCC1OC(=O)c2coc3c2[C@@]1(C)C1=C(C3=O)[C@@H]2CCC(=O)[C@@]2(C)CC1OC(C)=O (some centres undefined)
  -0.3[3.7 µM]	100	-0.3	98
